gsp agonist = gsp mutant agonism | 340,000 tested, 0.13% active | Potency, µM (doses to about 76.9 µM), for the others: at the top dose activation (cAMP increase), usual class: activators | gsp mutant cells, cAMP HTRF, 30 min; control for the full effect not named in the record | AID 624287; active = well fitted activation curve with a large enough effect; inconclusive = small, poorly fitted or top-dose-only effect, or another doubt; inactive = no such curve, though single readings can be large or run the other way; cell line not stated here;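 also: phosphodiesterase inhibitor Ro 20-1724 added with compounds to block cAMP breakdown; potency is read from the fitted curve at half-maximal effect; nearly all actives have a fitted effect of over 60% in size; about a fifth of the inactives were tested at one dose only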
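Cells stably selected in G418 were plated at 2000/well, grown 16-24 hr, then given compounds in DMSO with the PDE inhibitor […] (300 uM solution added) for 30 min at 37C; cAMP was read by HTRF.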
Menin-MLL FL inh = menin-MLL binding inhibition, fluorescein peptide; Fluorescence polarization, fluorescein-MLL peptide displacement from menin; 290,000 tested, under 10 active; FP activity change, % at 61.4 µM; AID 1766; inconclusive = falling polarisation curve, or a change in total fluorescence; inactive = total fluorescence flat and polarisation flat or rising; no compound was filed as active; the % refers to the polarisation; negative = inhibition;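 also: % of control where 0% means no effect; inhibitors lower the polarisation; unlabelled MLL peptide was the positive control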
TRPML1 agonist = activates the human TRPML1 channel. AID 624414. TRPML1-expressing cells, Ca2+ dye fluorescence, FDSS; host cell line not named in the record; reference of the full effect not given here. 410,000 tested, 0.12% active. activation, % (concentration not given with the values); in the data active = activation above about 50%; inconclusive = about 30% to 50%; inactive = below about 30%; also: 0% is about no effect; the text of the record puts the active cut at 80%
Target sequence (Q9GZU1 whole entry, looked up): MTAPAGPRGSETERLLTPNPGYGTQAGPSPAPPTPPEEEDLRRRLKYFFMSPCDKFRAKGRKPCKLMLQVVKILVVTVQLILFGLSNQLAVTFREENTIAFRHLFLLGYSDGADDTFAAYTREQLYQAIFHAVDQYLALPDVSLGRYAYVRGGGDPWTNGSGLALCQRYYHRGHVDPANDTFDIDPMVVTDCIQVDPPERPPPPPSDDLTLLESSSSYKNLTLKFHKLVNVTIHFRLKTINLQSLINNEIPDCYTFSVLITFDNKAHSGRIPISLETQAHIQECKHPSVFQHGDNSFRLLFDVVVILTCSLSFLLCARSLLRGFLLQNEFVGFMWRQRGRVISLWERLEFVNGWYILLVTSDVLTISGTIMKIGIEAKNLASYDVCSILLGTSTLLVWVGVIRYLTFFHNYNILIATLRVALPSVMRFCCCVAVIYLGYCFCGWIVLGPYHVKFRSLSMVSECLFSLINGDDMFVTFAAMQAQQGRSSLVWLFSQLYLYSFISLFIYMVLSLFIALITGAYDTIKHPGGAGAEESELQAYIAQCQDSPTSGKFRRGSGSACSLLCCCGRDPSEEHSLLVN
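TRPML1-DL cells, Tet-induced overnight (~16 h, 37 degrees C), loaded 45-90 min at room temperature with Ca8 no-wash calcium dye plus quencher. FDSS fluorescence: 10 s baseline, compound pin-transfer, 110 s agonist read, then EC80 54-4 (4uM final) and 110 s antagonist read.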
ClpP mod = qHTS Assay for Activators of ClpP. ATP-dependent Clp protease proteolytic subunit (Bacillus subtilis (strain 168)), P80244. purified B. subtilis ClpP, FRET peptide cleavage, 20 min. Potency, µM (series often up to 57.5 µM), for the others: top-dose activity change, negative = active. 340,000 tested, 1.9% active. AID 651965, 2013; active = well fitted falling curve with a large enough effect; inconclusive = small, poorly fitted or top-dose-only effect; inactive = no such curve, though single readings can be large or run the other way; also: potency is read from the fitted curve at half-maximal effect; the source files actives as falling curves though it sought activators and does not explain the sign; nearly all actives have a fitted effect of over 65% in size; many hits overshoot -100%
Target sequence (P80244 whole entry, looked up): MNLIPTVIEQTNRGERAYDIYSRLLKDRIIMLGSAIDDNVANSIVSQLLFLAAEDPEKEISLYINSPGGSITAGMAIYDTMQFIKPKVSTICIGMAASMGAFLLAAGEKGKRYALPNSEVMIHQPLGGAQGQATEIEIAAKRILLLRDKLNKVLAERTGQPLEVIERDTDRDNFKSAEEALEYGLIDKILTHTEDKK
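ClpP 10 microg/mL final, pH 8 Tris/KCl buffer with BSA, glycerol, Tween-20; compound pinned in; FRET-FV substrate; RT 20 min; Ex320/Em430; ΔFRET vs ADEP 5.8 microM, DMSO, no enzyme.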
gsp antag = gsp mutant antagonism. gsp-mutant cells, cAMP HTRF, 30 min; control for the full effect not named in the record. Potency, µM (top dose mostly 76.9 µM), for the others: at the top dose activity change, negative = inhibition, hits mostly inhibitors. 340,000 tested, 0.4% active; active = falling curve of any shape with a large fitted effect; inconclusive = falling curve, mostly with a smaller effect; inactive = flat or rising curve; cell line not stated here;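 also: intracellular cAMP measured with PDE inhibitor Ro 20-1724 present during compound exposure; potency is read from the fitted curve at half-maximal effect; % is scaled to controls: 0 for no effect and ±100 for the full control effect; nearly all actives have a fitted effect of over 65% in size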
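G418-selected cells were plated in DMEM/10% FBS for 16-24 h at 37C, then treated with compounds plus the PDE inhibitor […] (300 uM solution added) for 30 min at 37C. Intracellular cAMP was measured by HTRF after 30 min lysis at room temperature.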
TRPML1 blocker = blocks the human TRPML1 channel. 390,000 tested, 0.02% active. activity change, negative = inhibition, % (test concentration not listed). Q9GZU1. TRPML1-inducible cells, Ca2+ dye fluorescence, FDSS; active compounds read low; inhibition of EC80 agonist-evoked calcium signal; in the data active means activity change below about -50%; inconclusive means about -30% to -50%; inactive means above about -30%;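 also: stimulus is agonist 54-4 at its EC80 concentration; % is scaled to controls: 0 for no effect and ±100 for the full control effect; compound concentration not given in the record; the text of the record puts the active cut at -80%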
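TRPML1-DL cells, Tet-induced overnight (~16 h, 37 °C) at 1,500 cells/well, were loaded with Ca8 no-wash dye plus quencher for 45-90 min at room temperature. Compounds were pinned during FDSS kinetic reading; agonist 54-4 at EC80 (4 uM final) then added.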
Active calls of the source: *; u = inconclusive; x = not tested or not shown; & = joins results of further samples; [ ] = dose if it differs, or a comment. This is a subset; count on the stated rates, not on these rows.

Second line of a record: gsp agonist	Menin-MLL FL inh	TRPML1 agonist	ClpP mod	gsp antag	TRPML1 blocker
- COc1cc2c(cc1OC)-c1c(OC)c(OC)c(OC)c3ccnc(c13)C2=O
  x	-6.1	-0.7	-0.8%	-8%	2
- CCOc1cc2c(cc1OCC)-n1cccc1C(c1ccc(OC)c(O)c1)NC2 (configuration not stated)
  29%	u	1.3	x	12%	-11
- CCN(CC)CCCN=C(C)c1c(O)n(C2CCCCC2)c(=O)[nH]c1=O
  -1%	0.8	1.0	-5.9%	4%	-9
- Cc1ccc(OCCOc2cccc(C=C3C(=O)NC(=O)NC3=O)c2)c(C)c1
  20%	-0.5	1.3	x	-16%	8
- O=P(O)(Oc1ccccc1)OC(c1ccccc1)C(F)(F)F (configuration not stated)
  -7%[15.4 µM]	-8.7	0.6	x	10%	10
- COC(=O)C1=C(c2ccc(OCc3ccccc3)cc2)C[C@@H]2CC[C@H]1N2C(=O)NCc1ccc(OC)c(OC)c1
  -22%	x	1.9	-12%	-4%	-14
- COC(=O)C1=C(C(=O)OC)C2OC1c1cc3ccccc3cc12
  u	x	0.0	-2.3%	-4%	-16
- Cc1cccc(N=C2c3cc([N+](=O)[O-])ccc3-c3c2cc([N+](=O)[O-])cc3[N+](=O)[O-])c1
  4%[15.4 µM]	x	0.6	-18%	u	18
- CCC(=Nc1ccc2c(c1)CCC2)c1c(O)n(C2CCCCC2)c(=O)[nH]c1=O
  11%	2.7	-0.2	0.2%	2%	5
- c1ccc(CCNCc2ccccc2)cc1
  -11%	0.5	0.4	-6.1%	8%	28
- CN1CCC(N(C)c2nc(-c3ccc([N+](=O)[O-])cc3)nc3ccccc23)CC1
  3.5µM*	-0.2	1.5	2.1%	25%	0
- Cc1cc(C)n2nc(SCC(=O)N3CCC4(CC3)OCCO4)nc2n1
  u	-0.6	1.1	-11%	17%	4
- Cc1cc(OCC(=O)NCc2ccncc2)c2c3c(c(=O)oc2c1)CCC3
  -29%	x	-0.4	4.3%	-11%	-1
- Cc1cc(C)cc(NC(=O)CCNC(=O)N2C[C@H]3C[C@@H](C2)c2cccc(=O)n2C3)c1
  x	-7.6	x	-5.6%	3%	x
- Cc1cc(C=C2C(=O)NC(=O)NC2=O)c(C)n1-c1ccc2c(c1)OCO2
  -41%[inhibitor]	1.2	1.4	1.6%	19%	-7
- COc1ccc(CN2CC3CC(C2)c2cccc(=O)n2C3)cc1OC (configuration not stated)
  -59%[inhibitor]	0.7	1.1	0.4%	-17%	-3
- O=C(c1ccccc1)c1ccccc1N=Cc1c(O)[nH]c(=O)[nH]c1=O
  10%	-2.2	-0.1	x	-2%	16
- CC(OC(=O)c1cn(C)c2ccccc12)C(=O)N(C)c1ccccc1 (configuration not stated)
  3%[15.4 µM]	x	0.0	-3.4%	-1%	28
- COc1ccc2c(c1O)-c1cccc3c1[C@@H](C2)N(C)CC3
  x	x	0.1	4.6%	-4%	-9
- O=C1C2CCCN2C(c2cccnc2)N1c1nccs1 (configuration not stated)
  17%[15.4 µM]	0.1	0.6	1.1%	2%	6
- Cc1nn(Cc2ccccc2)c(C)c1C(=O)OCC(=O)NC1CCS(=O)(=O)C1 (configuration not stated)
  -10%	0.2	0.3	0.9%	12%	2
- O=C(Nc1cccc(Cl)c1)c1c(O)c2c(n(Cc3ccco3)c1=O)CCCC2
  27%	2.4	-0.8	-0.9%	3%	-4
- CC1(C)OC(c2ccccc2)=C/C(=C/C=C2C(=O)NC(=S)NC2=O)O1
  -1%	u	u	x	2%	-19
- CN(C)C(=O)Oc1ccc(C(=O)c2ccccc2)cc1
  17%	0.8	0.0	-2.0%	3%	1
- CCOP(=S)(NN(Cc1ccccc1)C(=O)c1ccccc1)OCC
  2%[15.4 µM]	8.4	-0.4	-1.0%	-5%	-8
- O=C(c1cc([N+](=O)[O-])ccc1N1CCNCC1)N1CCOCC1
  7%	4.9	-0.5	-2.8%	10%	8
- O=C(Nc1cccc(Cl)c1)OCC#CCN1CCCC1
  -7%	x	0.1	1.0%	7%	18
- Cc1nc2c(c(=O)[nH]1)C(c1ccc([N+](=O)[O-])cc1)c1c(c3ccccc3oc1=O)O2 (configuration not stated)
  -21%	0.1	4.1	0.9%	0%	7
- CCN(CC)CCOC(=O)c1cc2cc(COC)ccc2o1
  -10%	-1.6	0.2	28µM*	-2%	48
- Cc1ccc(C(C#N)=Cc2ccc3c(c2)OCO3)cc1
  14%	x	-0.1	4.0%	x	5
- O=c1c2ccccc2nc(/C=C/c2ccc(O)c(O)c2)n1-c1ccccc1
  3%	u	1.4	-5.2%	-13%	-4
- O=C1CN(O)C(c2ccccc2Cl)=c2cc(Br)ccc2=N1
  7%	u	0.3	-3.6%	-8%	10
- Cc1ccc(CN2CCCN(Cc3ccc(Cl)cc3)S2(=O)=O)cc1
  -20%	-0.4	3.6	x	1%	74
- O=C(Cn1ncc2c3ccccc3n(Cc3cccc(Cl)c3)c2c1=O)N1CCC2(CC1)OCCO2
  -1%	u	0.7	-25%	-1%	-1
- CCOP(=O)(OCC)/C(=N/OC(=O)c1ccccc1C)C(N)=O
  -6%	3.9	-0.1	0.6%	6%	-22
- COP(=S)(OC)SCn1nnc2ccccc2c1=O
  43%[15.4 µM]	2.6	0.4	0.3%	5%	15
- CCOC(=O)c1ccc(N=C(CC)c2c(O)n(C)c(=O)n(C)c2=O)cc1
  4%[15.4 µM]	4.8	-0.4	25µM*	-5%	18
- CN1C(=O)C(=Cc2sc(=O)n(-c3ccccc3)c2N2CCCCC2)C(=O)N(C)C1=O
  3%[15.4 µM]	u	3.2	1.4%	-14%	-7
- COc1cc(/C=N/n2cnnc2)ccc1OC(=O)N(C)C
  -7%	x	0.4	-7.6%	1%	0
- CNC(=O)Nc1ccc(C(O)(C(=O)OC)C(F)(F)F)cc1 (configuration not stated)
  -5%[15.4 µM]	-0.6	0.8	x	-4%	0
- O=c1[nH]c(=S)n(C2CC2)c(O)c1C=Nc1ccc2c(c1)OCO2
  u	8.1	-0.9	x	3%	2
- COc1ccccc1/C=C1\C(=O)NC(=S)N(c2ccccc2)C1=O
  3%	1.7	2.1	-4.2%	1%	u
- CC(C)c1ccc(CNC(=O)c2ccc(N3CCCC3)c(NC(=O)NCc3ccccc3)c2)cc1
  x	x	2.8	u	x	17
- CCCCCn1c(Sc2ccccc2)nc2c1c(=O)[nH]c(=O)n2C
  -38%[inhibitor]	1.5	0.8	-1.7%	6%	9
- O=C(Nc1ccc(C(F)(F)F)cc1)c1cccn(Cc2ccc3c(c2)OC(F)(F)O3)c1=O
  -29%	3.6	0.0	-2.3%	-12%	-8
- CCCCCc1nc2ccccc2c(=O)n1-c1ccc(C)cc1
  x	x	-1.4	2.0%	x	-1
- Cc1cccc(-n2c(CC3C(=O)Nc4ccc(C)cc43)nc3ccccc3c2=O)c1 (configuration not stated)
  x	x	3.0	0.4%	x	11
- COc1ccc(C(=O)CN2CCOCC2)cc1F
  -8%	-1.2	-0.2	-2.6%	-6%	14
- CN1CCN(c2ccc(N)cc2)CC1
  u	-0.1	-0.7	-1.2%	-11%	8
- COC(=O)C1=C(c2ccc(S(C)(=O)=O)cc2)C[C@@H]2CC[C@H]1N2C(=O)NCc1ccc(C(F)(F)F)cc1
  -25%	x	-0.1	-2.5%	-6%	7

The listing continues.
Second line of a record: gsp agonist	Menin-MLL FL inh	TRPML1 agonist	ClpP mod	gsp antag	TRPML1 blocker
- NC1=Nc2ccccc2Oc2ccccc21
  2%	3.5	1.5	-0.6%	-1%	12
- Cc1ccc(C(c2nnnn2Cc2ccccc2)N2CC=C(c3ccc(F)cc3)CC2)cc1 (configuration not stated)
  -53%[inhibitor]	-0.4	0.0	-9.6%	-11%	-2
- Cc1cccn2c(=O)c3c(nc12)N1CCC(Cc2ccccc2)CC1C1(C3)C(=O)N(C)C(=O)N(C)C1=O (configuration not stated)
  u	u	2.5	-24%	-2%	1
- COc1ccc2c(c1O)[C@]13CCN(C)[C@H](C2)[C@@H]1CCC(=O)C3
  -6%	2.8	x	-1.6%	9%	x
- COc1cc2c(cc1O)[C@@H]1Cc3ccc(OC)c(O)c3CN1CC2
  x	x	0.2	-0.7%	3%	-12
- c1ccc(C2OCCN3CCCCC23)cc1 (configuration not stated)
  4%[15.4 µM]	-1.1	-0.5	0.6%	14%	20
- COc1ccc(OCC(=O)N2CCN(Cc3ccc(SC)cc3)CC2)cc1
  13%[15.4 µM]	-2.6	-1.3&2.4	0.5%&-1.9%	3%	12&-15
- CC1CCC(NCC(O)c2ccccc2)CC1 (configuration not stated)
  3%	2.8	0.3	1.1%	13%	4
- Cc1ccc(-c2cc(-c3ccccc3)cc(-c3ccccc3)[n+]2-c2ccccc2)cc1
  x	x	2.0	u	50µM*	7
- C[C@]12CCC(=O)C=C1CC[C@@H]1C2[C@H](O)C[C@]2(C)C(=O)CCC12 (some centres not stated)
  u	-6.0	-0.2	-0.5%	-2%	5
- COc1ccccc1N1CCN(Cc2cccc(OC)c2O)CC1
  -126%[inhibitor]	-2.3	1.3	2.1%	9%	-3
- Cc1c(C=O)c2ccccc2n1Cc1ccccc1
  -1%[15.4 µM]	-1.0	-0.5	0.4%	-2%	-16
- Cc1cc(C(=O)NP(=O)(N2CCOCC2)N2CCOCC2)c(C)n1C1CC1
  -34%[inhibitor]	x	0.8	-1.2%	2%	-10
- CN1C2CCC1CC(=NO)C2
  -8%	-5.6	-0.4	-1.3%	8%	9
- CCN(CC)CCOC(=O)c1ccc(N=Cc2c(O)[nH]c(=O)[nH]c2=O)cc1
  -11%	u	-0.5	-9.0%	17%	-7
- CC1=C(C(=O)O)N2C(=O)C(NC(=O)Cc3ccccc3)C2SC1 (configuration not stated)
  5%[15.4 µM]	0.6	-0.4	x	10%	-5
- C=C(CO)CC1CC(O)[C@]2(C)OC3CC4OC5C[C@]6(C)O[C@]7(C)CCC8OC9C[C@]%10(C)OC%11C(C)=CC(=O)OC%11CC%10OC9C[C@@H](C)C8OC7CC6O[C@]5(C)C/C=C\C4OC3CC2O1 (some centres not stated)
  x	0.9	22	-4.4%	-4%	-9
- Cc1cccc(CCNCc2cc3cccc(C)c3[nH]c2=O)c1
  -30%	1.9	0.4	x	-7%	-11
- Cc1cc(=O)oc2cc(Oc3ccc([N+](=O)[O-])cc3C(F)(F)F)ccc12
  -61%[inhibitor]	x	1.5	2.5%	-16%	9
- Cc1ccc(C(=O)Nc2ccccc2)cc1S(=O)(=O)N1CCCC1
  x	x	4.5	0.5%	x	13

Screening results deposited in PubChem BioAssay by National Center for Advancing Translational Sciences (NCATS).
